D2 agonist – agonists of human D2 dopamine receptor (beta-arrestin) | P14416 | DiscoveRx PathHunter D2 beta-arrestin, luminescence, 90 min; 100% = 57 uM dopamine signal | activation, % (concentration not given with the values) | 360,000 compounds, 0.084% hits | AID 624465; in the data active = activation above about 40%; inconclusive = about 15% to 40%; inactive = below about 15%; note: the text of the record calls up to 30% inactive
Target sequence (P14416 whole entry, looked up): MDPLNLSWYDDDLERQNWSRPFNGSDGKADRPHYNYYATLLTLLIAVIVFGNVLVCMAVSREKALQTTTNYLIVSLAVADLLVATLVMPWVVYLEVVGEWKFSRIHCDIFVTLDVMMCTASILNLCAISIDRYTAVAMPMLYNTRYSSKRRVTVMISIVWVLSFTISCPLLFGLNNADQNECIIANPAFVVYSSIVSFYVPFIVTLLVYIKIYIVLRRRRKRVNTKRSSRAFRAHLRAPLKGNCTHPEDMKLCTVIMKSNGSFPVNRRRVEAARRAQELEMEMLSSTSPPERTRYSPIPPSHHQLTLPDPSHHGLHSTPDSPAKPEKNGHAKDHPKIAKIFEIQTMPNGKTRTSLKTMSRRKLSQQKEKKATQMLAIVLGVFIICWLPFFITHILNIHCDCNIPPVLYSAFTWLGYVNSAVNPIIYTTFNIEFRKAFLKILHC
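DiscoveRx PathHunter D2 beta-arrestin cells (2,100/well) attached overnight, then compound-stimulated 90 min at 37 C in HBSS/10 mM HEPES/0.1% Tween-20 buffer; beta-galactosidase complementation read by luminescence after 1 h at ambient temperature. Dopamine 57 uM final (EC100) as control.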
gsp agonist – activates gsp, the McCune-Albright syndrome mutation | 340,000 compounds, 0.13% hits | Potency, µM (titrated, usually from 76.9 µM), for the others: at the top dose activation (cAMP increase), actives largely listed as activators | AID 624287 | gsp mutant cells, cAMP HTRF, 30 min; control for the full effect not named in the record; active = well fitted activation curve with a large enough effect; inconclusive = small, poorly fitted or top-dose-only effect, or another doubt; inactive = no such curve, though single readings can be large or run the other way; cell line not stated here;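 note: phosphodiesterase inhibitor Ro 20-1724 added with compounds to block cAMP breakdown; potency is the fitted concentration of half-maximal effect; nearly all actives have a fitted effect of over 60% in size; about a fifth of the inactives were tested at one dose only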
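Cells in DMEM/10% FBS with G418 were pretreated with compounds in DMSO plus […] (300 uM stock) for 30 min at 37C. cAMP was measured by HTRF (cAMP-d2 plus anti-cAMP antibody-K) after 30 min at room temperature.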
gsp antagonist – antagonizes gsp, the McCune-Albright syndrome mutation; gsp-mutant cells, cAMP HTRF, 30 min; control for the full effect not named in the record; Potency, µM (titrated, usually from 76.9 µM), without a hit: top-dose activity change, negative = inhibition, actives largely listed as inhibitors; 340,000 compounds, 0.4% hits; AID 624288; active = falling curve of any shape with a large fitted effect; inconclusive = falling curve, mostly with a smaller effect; inactive = flat or rising curve; cell line not stated here;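 note: intracellular cAMP measured with PDE inhibitor Ro 20-1724 present during compound exposure; potency is the fitted concentration of half-maximal effect; % is set by controls: 0 for no effect and ±100 for the full control effect; nearly all actives have a fitted effect of over 65% in size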
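Measurement of cellular cAMP by homogeneous time-resolved fluorescence following a 30 min compound exposure at 37C. The PDE inhibitor […] was present throughout; the assay buffer was DPBS with 0.05% BSA and 0.005% Tween 20.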
ClpP mod – qHTS Assay for Activators of ClpP. purified B. subtilis ClpP, FRET peptide cleavage, 20 min. Potency, µM (top dose mostly 57.5 µM), without a hit: at the highest dose activity change, negative = active. 340,000 compounds, 1.9% hits. AID 651965, 2013; active = well fitted falling curve with a large enough effect; inconclusive = small, poorly fitted or top-dose-only effect; inactive = no such curve, though single readings can be large or run the other way; note: potency is the fitted concentration of half-maximal effect; the source files actives as falling curves though it sought activators and does not explain the sign; nearly all actives have a fitted effect of over 65% in size; many hits overshoot -100%
Target sequence (P80244 whole entry, looked up): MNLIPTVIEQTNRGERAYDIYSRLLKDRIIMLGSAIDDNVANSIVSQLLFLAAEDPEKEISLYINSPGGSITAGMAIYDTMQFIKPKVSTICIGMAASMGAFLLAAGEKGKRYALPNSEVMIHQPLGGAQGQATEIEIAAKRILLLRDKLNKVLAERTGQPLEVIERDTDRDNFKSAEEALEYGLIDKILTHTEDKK
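ClpP 10 microg/mL final, pH 8 Tris/KCl buffer with BSA, glycerol, Tween-20; compound pinned in; FRET-FV substrate; RT 20 min; Ex320/Em430; ΔFRET vs ADEP 5.8 microM, DMSO, no enzyme.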
PINK1 expr mod – changes PINK1 expression | PINK1 immunofluorescence, high-content cytometry, 24 h | Potency, µM (top dose mostly 76.6 µM), for the others: at the highest dose activation (PINK1 increase), most hits filed as activators | 410,000 compounds, 0.2% hits | AID 624263; active = well fitted activation curve with a large enough effect; inconclusive = small, poorly fitted or top-dose-only effect; inactive = flat fitted curve, though single readings scatter; cell line not stated here;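 note: potency is the fitted concentration of half-maximal effect; % of control where 0% means no effect; nearly all actives have a fitted effect of over 65% in size; a mitochondrial uncoupler was the plate control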
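Fluorescence from anti-PINK1 antibody, together with nuclear and cell stains, was scanned on a laser-scanning cytometer. Before staining, stable-line cells were incubated 24 hours with compounds at 5 concentrations; primary antibody 12 h at 10 degrees C.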
Sfp inh – Sfp phosphopantetheinyl transferase inhibition; Biochemical Sfp PPTase activity, qHTS; Potency, µM, without a hit: max response, negative = inhibition, most hits filed as inhibitors; 310,000 compounds, 3.5% hits; AID 1490; active = well fitted inhibition curve with a large enough effect; inconclusive = small, poorly fitted or top-dose-only effect, or another doubt; inactive = no such curve, though single readings can be large or run the other way;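 note: the enzyme is Sfp with the accession as filed and its product quenches rhodamine fluorescence; potency is the fitted concentration of half-maximal effect; 0% = enzyme reaction without inhibitor and -100% = no enzyme wells; top concentration of the series not given in the record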
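Sfp 15 nM + cpd, 15 min RT; start w/ rhodamine-CoA 5 uM, BHQ-2-YbbR 12.5 uM (final); 50 mM Hepes pH 7.6, 10 mM MgCl2, 0.01% NP-40, 0.01% BSA; read 525/598 nm at 0 and 30 min.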
Menin-MLL FL inh – menin-MLL binding inhibition, fluorescein peptide; Fluorescence polarization, fluorescein-MLL peptide displacement from menin; FP activity change, % at 61.4 µM; 290,000 tested, under 10 active; inconclusive = falling polarisation curve, or a change in total fluorescence; inactive = total fluorescence flat and polarisation flat or rising; no compound was filed as active; the % refers to the polarisation; negative = inhibition;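 note: % of control where 0% means no effect; inhibitors lower the polarisation; unlabelled MLL peptide was the positive control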
* marks the source's active call; other numbers are inactive results; ? = inconclusive; . = no result given; & = joins results of further samples; [ ] = dose if it differs, or a comment. An unsorted share of the library; any-hit rate near 5.1%.

SMILES	D2 agonist	gsp agonist	gsp antagonist	ClpP mod	PINK1 expr mod	Sfp inh	Menin-MLL FL inh
COc1cc2nc(N3CCN(C(=O)[C@@H]4CCCO4)CC3)nc(N)c2cc1OC	-5.7	.	-10.3%	4.1%	0.6%	6.3%&17.8%	0.1
CN(C)S(=O)(=O)c1ccc(S(=O)(=O)Nc2ccc3c(c2)oc2ccccc23)cc1	-2.6	-43.3%[inhibitor]	-7.5%	-2.1%	?	15.5%	1.8
COc1cccc(CNC(=O)CCNC(=O)C2CCN(S(=O)(=O)c3ccccc3)CC2)c1	-3.7	-4.7%	-0.9%	0.6%	-1.2%	5.4%	.
COc1ccc(CN(C(=O)c2ccco2)C2CCS(=O)(=O)C2)cc1 (stereo not drawn)	-1.5	-61.7%[inhibitor]	3.4%	28.2µM*	-1.5%	13.3%	-1.7
CC1CCc2nc3ccc(S(=O)(=O)N4CCC(C(=O)N5CCCCC5)CC4)cc3c(C(=O)O)c2C1 (stereo not drawn)	-4.8	-5.3%	10.7%	-1.3%	0.9%	5.7%	0.0
C#CCSc1nncn1C(=O)/C=C/c1ccccc1	-0.1	17.0%	-0.4%	-0.9%	1.9%[38.3 µM]	?	0.3
CCC1CCCCN1CCCNC(=O)c1c(O)nc2ccccn2c1=O (stereo not drawn)	-2.9	?	0.4%	4.0%&3.3%	1.0%&1.7%	5.4%	3.0
CC1CN(CCN2CC(C)N(C=O)CC2C)C(C)CN1C=O (stereo not drawn)	-2.1	-5.5%[15.4 µM]	3.6%	-1.5%	0.1%	.	.
O=c1[nH]c2cc([N+](=O)[O-])ccc2c2ccc([N+](=O)[O-])cc12	5.8	-34.3%[inhibitor]	1.7%	2.1%	-4.7%	.	.
CCOCCNC(=O)c1ccccc1C(=O)NCCOCC	-1.3	-0.7%	7.8%	-1.6%	-3.9%[38.3 µM]	8.1%	1.7
Cc1c(NC(=S)NC(=O)c2ccccc2Br)c(=O)n(-c2ccccc2)n1C	-2.4	-1.2%[15.4 µM]	14.3%	-1.6%	-2.7%	14.3%	4.0
CC(C)c1onc(C(=O)Nc2sc3c(c2C#N)CCC3)c1[N+](=O)[O-]	-1.5	-18.1%	-5.5%	.	0.8%	56.2µM*	-0.2
CCN1CCN(C(=O)CSc2ccc(C)cc2)CC1	-2.7	4.2%	11.4%	-0.6%	-0.2%	3.9%	-2.8
CCCc1c(C)c2cccc(C)c2[nH]c1=O	-2.4	?	14.7%	-11.5%	-1.0%	6.2%	4.7
COc1ccc(C(C)=O)cc1COC(=O)c1ccc2c(c1)OCCO2	7.2	20.5%	13.7%	-0.1%	8.8%	.	.
Cc1cccc(NC(=O)c2cnc3ccccn3c2=O)c1	6.3	3.1%	5.4%	-4.7%	0.7%	28.2%	0.4
CNc1nc(CCN2C(=O)c3ccccc3C2=O)cs1	1.3	-38.9%[inhibitor]	2.9%	-3.4%	-1.2%[38.3 µM]	2.4%	2.2
CCOC(=O)C1CCN(C(=O)CSc2ccccc2Cl)CC1	5.5	17.3%[15.4 µM]	-3.4%	.	0.6%	15.4%	-0.5
Nc1cc2c([N+](=O)[O-])cccc2o1	-2.9	0.0%	-15.3%	-0.6%	7.3%	6.4%	?
Cc1ccc(C2Nc3ccccc3-c3nc4ccccc4n32)o1 (stereo not drawn)	-0.4	?	-11.6%	0.708µM*	?	-2.6%	6.0
Cc1cccc(S(=O)(=O)c2c(C)cc(C)[nH]c2=O)c1	-2.1	-5.2%	2.3%	.	2.5%	5.1%	0.2
c1ccc(CCn2c(C3CC3)nc3ccccc32)cc1	-2.0	6.5%	?	-0.8%	-0.8%[38.3 µM]	4.9%	3.1
O=C(COc1ccc2ccc(=O)oc2c1)NC(Cc1ccc(Cl)cc1)C(=O)O (stereo not drawn)	-8.7	.	2.0%	4.7%	0.5%	11.3%	0.4
Cc1cc(C(=O)OCC(=O)c2cccc([N+](=O)[O-])c2)c2ccccc2n1	-8.9	-30.3%[inhibitor]	-16.5%	-17.9%	0.2%	-1.7%	4.6
O=C(CCNC(=O)C1CCN(S(=O)(=O)c2ccc(F)cc2)CC1)Nc1ccccc1	-1.4	-0.6%	7.6%	-2.4%	0.2%	11.3%	.

(cont.)
SMILES	D2 agonist	gsp agonist	gsp antagonist	ClpP mod	PINK1 expr mod	Sfp inh	Menin-MLL FL inh
CC(=O)Nc1ccc(NC(=O)CCS(=O)(=O)c2ccc3c(c2)oc(=O)n3C)cc1	-2.4	-14.2%	9.3%	0.3%	-0.9%	17.1%	.
CN(C)S(=O)(=O)c1ccc2c(c1)nc(CCC(=O)Nc1ccc(N3CCOCC3)cc1)n2C	6.2	-11.1%[15.4 µM]	-0.7%	.	-0.1%	5.4%	2.1
CC(=O)N1CC(C)Sc2ccc(S(=O)(=O)NCc3ccc(F)cc3)cc21 (stereo not drawn)	-1.6	-0.9%	1.8%	-3.9%	2.7%	4.3%	.
N#Cc1ccc(CN2CCC3(CC2)CCN(C(=O)c2cnccn2)CC3)cc1	.	.	.	.	-0.3%	21.1%	-6.6
O=C(O)CCC(=O)OCCCc1cc2ccccc2c(=O)o1	-2.2	-2.3%	5.2%	-20.9%	-0.8%	.	.
CCCCOc1ccc(C(=O)NN2CCOCC2)cc1	-1.8	-6.3%[15.4 µM]	-22.5%	0.6%	2.6%	.	.
C=CCSc1nnc2n(CCc3ccccc3)c(=O)c3c4c(sc3n12)COC(C)(C)C4	0.2	-38.5%[inhibitor]	-14.8%	-8.3%	1.3%	5.9%	-0.1
N#C/C(=C/c1ccc(N2CCOCC2)o1)c1ccc(Br)cc1	8.0	9.1%	1.4%	-3.4%	?	2.82µM*	?
COCCNC(=O)C1(C)CCN(C(=O)COc2ccc(Cl)cc2Cl)C1 (stereo not drawn)	-5.2	.	.	-1.1%	0.7%	.	.
CN1CC[C@@]2(CCCN(C(=O)c3cccc(F)c3)C2)C1	.	.	.	.	0.9%	10.3%	1.3
COc1ccc2c(c1OC)C(=O)OC2Nn1cncn1 (stereo not drawn)	-2.9	-59.2%[inhibitor]	-1.0%	-22.2%	0.1%[38.3 µM]	11.8%	3.2
CC(=O)Nc1ccc2ccc3cccc4ccc1c2c34	-0.4	-8.3%	10.3%[15.4 µM]	14.1µM*	1.4%	0.6%	1.3
COc1ccccc1-c1noc(-c2ccccc2)n1	-2.4	?	-2.5%	-2.0%	-1.0%	0.5%	-1.4
O=C(NC(=S)Nc1cccc2cc(O)ccc12)c1ccccc1Br	-4.3	-23.0%	?	6.8%	-3.7%	2.8%	.
CC(=O)NC(Cc1ccccc1)C(=O)NC1CCN(C(=O)c2ccc([N+](=O)[O-])cc2)CC1 (stereo not drawn)	-2.8	-22.5%	4.7%	-1.2%	1.2%	7.8%	0.9
Cc1ccc(N(C(=O)C(F)(F)F)C(C(=O)NC2CCCCC2)c2ccncc2)cc1C (stereo not drawn)	-0.3	4.9%	27.1%	-0.7%	2.4%	13.0%	-0.6
Cc1occc1C(=O)N/N=C/c1ccc[nH]1	-6.3	-23.8%	3.9%	-1.7%	-0.1%	.	.
COc1cc(C=O)ccc1Oc1nc(Nc2ccc(F)cc2F)nc(N2CCOCC2)n1	0.1	2.0%[15.4 µM]	-19.7%	.	0.0%	7.5%	0.4
O=S1(=O)CCN(OCc2ccc(F)cc2Cl)CC1	0.2	0.4%	8.1%	.	-1.3%	11.7%	1.1
CCOC(=O)C1CCCN(C(=O)Cn2ncc3c([nH]c4ccc(C)cc43)c2=O)C1 (stereo not drawn)	7.2	-2.1%	-11.6%	3.9%&4.0%	3.0%&0.9%	3.6%	4.8
Cc1nc(Nc2nc3ccccc3o2)nc(C)c1C(=O)Nc1ccc(F)cc1	-2.5	6.4%	3.0%	1.8%	0.4%	10.6%	-0.4
O=C(CC[C@H]1O[C@@H](n2ccc(=O)[nH]c2=O)[C@H](O)[C@@H]1O)NC1CCN(Cc2ccccc2)C1 (stereo partly drawn)	-4.4	.	.	1.2%	2.0%	.	.
O=C(Cn1nc(-c2ccccc2)ccc1=O)NCCN1CCN(c2cccc(Cl)c2)CC1	-0.7	-56.8%[inhibitor]	2.7%	-7.4%	-3.7%[38.3 µM]	-13.3%	2.0
CCCCCNC(=O)CC1Nc2c3ccccc3nc(=S)n2C1=O (stereo not drawn)	0.9	-4.2%	1.0%	-2.3%	.	?	0.3
NC(=O)C1(N2CCCCC2)CCN(C(=O)CSc2nc3ccccc3s2)CC1	-5.1	-35.3%[inhibitor]	-3.2%	-3.1%	-2.5%	13.5%	4.4

(next part)
SMILES	D2 agonist	gsp agonist	gsp antagonist	ClpP mod	PINK1 expr mod	Sfp inh	Menin-MLL FL inh
CC(C)NC(=O)c1cc(C2CCCCN2S(=O)(=O)c2ccccc2)on1 (stereo not drawn)	-2.8	.	.	0.3%	-0.5%	.	.
COCCn1c2nc(=O)n(-c3ccccc3)c(=O)c-2nc2ccccc21	5.4	?	.	4.7%	-1.2%	.	.
O=C(Nc1ccccc1F)Nc1cccnc1Cl	1.4	1.4%	-1.8%	.	-1.4%	.	.
CC(=O)c1cccc(NC(=O)c2ccc(OCc3c(C)noc3C)cc2)c1	0.5	0.2%	-13.2%	-1.4%	10.8%	.	.
CCN(CC)S(=O)(=O)c1ccc(/C(O)=C2/C(=O)C(=O)N(CCOC)C2c2ccccc2)cc1 (stereo not drawn)	-2.7	-84.0%[inhibitor]	5.0%	-2.5%	-1.0%	3.5%	7.5
C=CCNC(=S)Nc1ccc(C)cc1[N+](=O)[O-]	-1.9	-47.1%[inhibitor]	12.6%	2.1%	1.3%	-6.2%	-4.5
CCOC(=O)Cc1nc2cc(Cl)ccc2o1	-0.6	7.9%[15.4 µM]	.	.	0.7%	9.2%	1.5
CC1CC(C)CN(CCCSc2ccccc2)C1 (stereo not drawn)	-4.1	4.0%	9.4%	?	-0.9%	?	1.1
Cc1cc(Cn2ccnc2)c(C)c([N+](=O)[O-])c1Cn1ccnc1	5.5	-3.9%	3.4%	-2.4%	-0.1%	9.0%	3.5

Compound activity from PubChem BioAssay.
